VDR inhibitor = Inhibitors of the vitamin D receptor (VDR): qHTS; Vitamin D3 receptor (Homo sapiens), P11473; VDR-SRC2-3 peptide fluorescence polarization, 2 h; Potency, µM, inactives show max response, negative = inhibition, hits mostly inhibitors; 0.93% of 400,000 active; AID 504847, 2011; active means well fitted inhibition curve with a large enough effect; inconclusive means small, poorly fitted or top-dose-only effect, or another doubt; inactive means no such curve, though single readings can be large or run the other way; further: series mostly up to about 120 µM
Target sequence (P11473 whole entry, looked up): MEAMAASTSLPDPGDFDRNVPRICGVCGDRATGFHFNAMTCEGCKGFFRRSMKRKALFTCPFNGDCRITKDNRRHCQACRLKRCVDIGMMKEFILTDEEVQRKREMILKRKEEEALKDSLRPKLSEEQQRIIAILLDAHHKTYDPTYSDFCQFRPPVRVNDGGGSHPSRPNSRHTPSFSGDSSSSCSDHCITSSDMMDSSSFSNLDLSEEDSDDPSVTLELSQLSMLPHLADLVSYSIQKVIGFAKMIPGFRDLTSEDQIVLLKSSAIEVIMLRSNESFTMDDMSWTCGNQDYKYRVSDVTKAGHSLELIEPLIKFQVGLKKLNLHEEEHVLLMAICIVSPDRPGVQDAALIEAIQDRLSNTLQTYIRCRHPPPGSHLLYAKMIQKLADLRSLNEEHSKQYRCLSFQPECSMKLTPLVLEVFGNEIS
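VDR–SRC2-3 interaction, FP format. Cmpds 23 nl via pintool, brief spin, 2 h ambient incubation.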
The depositor's hits bear a star; ? = inconclusive; & = joins results of further samples. On the % scale 0 is the no-effect control and ±100 the full control effect; potency means the concentration at half of the fitted maximal effect. A portion of the library. The share of hits here may be higher or lower than overall.

The first 4 entries, to show the layout:
SMILES	VDR inhibitor
CCc1cccc(CC)c1NC(=S)NCC(c1cccnc1)N1CCOCC1 (stereo not drawn)	1%
COc1cc(-c2nc3cccc(C)n3c2Nc2ccc3c(c2)OCCO3)ccc1O	1%
COc1cc(C(=O)NCCc2csc(-c3ccc(Cl)cc3)n2)cc(OC)c1OC	10%
O=C(N=C1SC2CS(=O)(=O)CC2N1Cc1ccccc1)C1CCCO1 (stereo not drawn)	-6%

The listing, repeating the preview:
SMILES	VDR inhibitor
CCc1cccc(CC)c1NC(=S)NCC(c1cccnc1)N1CCOCC1 (stereo not drawn)	1%
COc1cc(-c2nc3cccc(C)n3c2Nc2ccc3c(c2)OCCO3)ccc1O	1%
COc1cc(C(=O)NCCc2csc(-c3ccc(Cl)cc3)n2)cc(OC)c1OC	10%
O=C(N=C1SC2CS(=O)(=O)CC2N1Cc1ccccc1)C1CCCO1 (stereo not drawn)	-6%
O=C(OCc1nnc(-c2ccccc2)o1)c1ccc([N+](=O)[O-])o1	8%
CCc1ccc(NC(=O)C2CCN(c3c(N4CCCC4)c(=O)c3=O)CC2)cc1	-3%
O=C(COC(=O)C1CC(=O)N(c2ccc3c(c2)OCCO3)C1)NC1CCCc2ccccc21 (stereo not drawn)	10%
CCn1c(=O)c(C(=O)NCc2ccc(OC)cc2)c(O)c2ccccc21	1%
Cc1ccc(CCNC(=O)C2CCCN(S(=O)(=O)c3ccc4c(c3)oc(=O)n4C)C2)cc1 (stereo not drawn)	-18%
COc1ccc(NC(=O)CSc2c3c(nc4cc(Cl)ccc24)CCCC3)cc1OC	?
FC(F)(F)c1ccc(N/N=C/c2cccnc2)nc1	5%
CCOC(=O)c1sc(N)c(C#N)c1CSc1nnc(C2CCCCC2)n1N	9%
CC(=O)Nc1c(O)nc(SCC(=O)Nc2cccc(C)c2)[nH]c1=O	22%
Cc1cccc(NC(=O)NNC(=O)c2c(Cl)c(C)nn2C)c1	-7%
Cc1ccc(C)c(NC(=O)CSc2nnc(CSc3nc(C)cc(C)n3)n2Cc2ccco2)c1	-3%
O=C(NCC(c1ccco1)N1CCCCC1)c1ccc(COc2ccc(Cl)cc2)cc1 (stereo not drawn)	8%
COc1ccccc1CNC(=O)c1ccc(CS(=O)(=O)c2ccc(C)cc2)o1	-10%
O=C(CSc1ncccn1)NC(=O)Nc1ccc2c(c1)OCCO2	17%
Cc1cccc(NC(=O)CN(C)CC(=O)NC(c2ccccc2)c2ccccc2)c1C	-25%
COc1ccccc1/C=C/C(=O)OCc1nc2ccccc2c(=O)[nH]1	-8%
COc1ccc(NC(=S)N2CCC(N(C)CCN3CCOCC3)CC2)cc1	0%
COc1ccc(S(=O)(=O)N2CCC(C(N)=O)(N3CCCCC3)CC2)cc1OC	-20%
Cc1sc2c(c1C)C(=O)NC(c1ccccc1F)N2 (stereo not drawn)	32µM*
Cn1c(=O)[nH]c(=O)c2c1nc(Br)n2CCCO	15%
CS(=O)(=O)N1CCC(C(=O)Nc2cccc([N+](=O)[O-])c2)CC1	-3%
CCc1ccc(CNC(=O)c2ccc3c(c2)nc2n3CCC(C)C2)cc1 (stereo not drawn)	8%
CCc1ccc(C(=O)NNc2cc(Cl)cc(Cl)c2)cc1	-4%
O=C1NC(c2ccc(Cl)cc2)Nc2ccccc21 (stereo not drawn)	19%
COC(=O)c1ccc[n+](CCc2c[nH]c3ccccc23)c1	-20%
CCn1c(N2CCN(C(=O)NC3CCCCC3)CC2)nc2ccccc21	-24%
Cc1cc(NC(=O)c2ccc3c(c2)OCCO3)no1	-1%
O=C(NCCN1CCc2ccccc2C1)Nc1ccc([N+](=O)[O-])cc1	?
CCC(C)NC(=S)NNC(=O)c1ccncc1 (stereo not drawn)	12%
Cc1cccc(NC(=O)CNC(=O)CSc2nnc(C(F)(F)F)n2C)c1C	7%
CCCCn1c(N)c(N(CC)C(=O)c2cnc(C)cn2)c(=O)[nH]c1=O	7%
c1ccc(CNCC2COc3ccccc3O2)cc1 (stereo not drawn)	-7%
c1ccc2c(CN3CCSCC3)cccc2c1	-5%
COC(=O)N1C/C=C\C(c2ccc(OC)cc2)N(Cc2ccc(F)cc2)C(=O)C1 (stereo not drawn)	-27%&9%
CN(C)c1cccc(C(=O)OCC(=O)Nc2ccccc2Cl)c1	-20%
COc1ccc(NC(c2ccccc2)c2ccncc2)cc1 (stereo not drawn)	-22%
O=C(Nc1ccccc1C(F)(F)F)c1cc2ccccc2o1	10%
O=C(CN1C(=O)c2cccnc2Oc2ccc(Cl)cc21)NC1CCCCC1	-21%
Cc1ccc(S(=O)(=O)NN=C2CC3CCC2(C)C3(C)C)cc1 (stereo not drawn)	0%
O=C(Nc1cc(C(F)(F)F)ccc1Cl)c1noc2c1CCCCC2	-16%
CCc1ccc(NCCC(=O)c2ccc(Br)cc2)cc1	7%
Cc1ccc2c(C(=O)CN3CCCC(C)C3)c(C)[nH]c2c1 (stereo not drawn)	10%
CSc1nc2cc(C)nn2c(-c2ccccc2Cl)c1C#N	8%
CCc1ccc(NC(=O)CCNC(=O)Cn2cnc3ccccc3c2=O)cc1	?
CN(C)/C=N/c1ncc(C(=O)c2ccccc2)s1	-10%
Cc1ccccc1C(=O)NNC(=S)Nc1cccc(C(F)(F)F)c1	2%

(cont.)
SMILES	VDR inhibitor
Cc1nnc(SCC(=O)NCC(=O)Nc2ccc(F)c(F)c2F)n1N	15%
O=C1C=C(c2cccc3c2oc2ccccc23)CCC1	-26%
NC(=S)NN=C1CCSCC1	8%
Cc1[nH]c2ccccc2c1SCc1nnc(SCc2ccc(Cl)cc2)n1C	-7%
O=C(Nc1ccc2c(c1)OCO2)c1ccc([N+](=O)[O-])cc1[N+](=O)[O-]	-1%
COc1ccc(NC(=O)N(C)C[C@@H]2Oc3c(NC(=O)Nc4c(C)noc4C)cccc3C(=O)N([C@@H](C)CO)C[C@@H]2C)cc1	0%
O=C(NCC1CCCO1)c1ccc(Br)s1 (stereo not drawn)	-6%
CCOC(=O)NS(=O)(=O)c1ccc(CCNC(=O)c2cc(C)on2)cc1	7%
CCOC(=O)N1CCC(NC(=O)c2cc(S(=O)(=O)N3CCCCC3)ccc2F)CC1	-17%
COc1ccc(/C=C/C(=O)NCC(=O)N2CCC(N(C)CCN3CCOCC3)CC2)cc1OC	-2%

Part of the list above, bar-delimited:
SMILES | VDR inhibitor
COc1ccc(/C=C/C(=O)NCC(=O)N2CCC(N(C)CCN3CCOCC3)CC2)cc1OC | -2%
Cc1nnc(SCC(=O)NCC(=O)Nc2ccc(F)c(F)c2F)n1N | 15%
COc1ccc(NC(=O)N(C)C[C@@H]2Oc3c(NC(=O)Nc4c(C)noc4C)cccc3C(=O)N([C@@H](C)CO)C[C@@H]2C)cc1 | 0%
CCOC(=O)N1CCC(NC(=O)c2cc(S(=O)(=O)N3CCCCC3)ccc2F)CC1 | -17%
Cc1[nH]c2ccccc2c1SCc1nnc(SCc2ccc(Cl)cc2)n1C | -7%
O=C(Nc1ccc2c(c1)OCO2)c1ccc([N+](=O)[O-])cc1[N+](=O)[O-] | -1%

The list continues:
SMILES	VDR inhibitor
COc1cc2c(cc1OC)C(C)N(C(=O)c1cc3ccccc3o1)CC2 (stereo not drawn)	14%
CC(=O)N/C(N)=N/c1nc2cc([N+](=O)[O-])ccc2o1	-11%
CC1(C)CC(=O)C2=C(C1)N(c1ccc(F)cc1)C(=O)CC2c1cccnc1 (stereo not drawn)	-14%
Cc1ccccc1NC1=C/C(=N\S(=O)(=O)c2cccs2)c2ccccc2C1=O	-4%
O=C(CCC1CCCC1)N1CCC(N2CCCCCC2)CC1	-6%
CCOC(=O)N1CCN(C(=O)CSCc2ccccc2C)CC1	3%
COC(=O)[C@@H](Cc1ccccc1)NC(=O)NCCc1ccccc1	-1%
COc1ccc(C)cc1NC(=O)c1oc2ccc(S(=O)(=O)N3CCOCC3)cc2c1C	0%
CCOC(=O)N1CCN(c2c(N3CCC(N4CCCCC4)CC3)c(=O)c2=O)CC1	-7%
O=C(CSc1nnc(CSc2nc3ccccc3s2)o1)NC1CCCCC1	9%
CCN(CC)CCNC(=O)Cn1cnc2sc(C)c(S(=O)(=O)N3CCOCC3)c2c1=O	12%
CN1C(=O)C2CCCCN2c2ccc(C(=O)NCc3ccccc3Br)cc21 (stereo not drawn)	14%
CCN(CC)S(=O)(=O)c1ccc2c(c1)N(CC(=O)Nc1c(C)cccc1C)C(=O)CO2	-20%
Cc1ccc(CS(=O)Cc2ccc(C(=O)NC3CCCCCC3)o2)cc1 (stereo not drawn)	-3%
Cc1cc(=O)n2nc(N3CCC(C(=O)NCc4ccc(Cl)cc4)CC3)sc2n1	-9%&15%
CNNCc1ccc(C(=O)NC(C)C)cc1	-1%&16%
O=C(O)COc1ccccc1/C=N/NC(=O)CNC(=O)c1ccc(F)cc1	?
CN1C(=O)C2(SCC(=O)N2c2ccc(Cl)cc2)c2ccccc21 (stereo not drawn)	7%
O=C(NCCCc1ccccc1)c1cccc(Br)c1	4%
CCCCN1C(=O)/C(=C/C=C2/CC(C)(C)CN2C)SC1=S	-18%
COc1ccc(C(=O)C2CCCN(Cc3ccc(C#CCCO)cc3)C2)c(OC)c1 (stereo not drawn)	6%
COc1ccccc1NC(=O)C(=O)NCC(c1ccco1)N1CCc2ccccc2C1 (stereo not drawn)	-17%
Cc1ccc2sc(N(CCCN(C)C)C(=O)c3ccc(Br)s3)nc2c1C	22%
O=[N+]([O-])c1cccc(S(=O)(=O)Nc2ccc(S(=O)(=O)Nc3nccs3)cc2)c1	-5%
CC(=O)NC(CCS(C)(=O)=O)C(=O)Nc1ccc(Cl)c(Cl)c1 (stereo not drawn)	-14%
CC(C)Oc1ccc(C(=O)Nc2ccc(N3CCCCC3)cc2)cc1	-15%
COC(=O)c1ccc(-c2nc(O)c3cnccn23)cc1	-10%
O=[N+]([O-])c1ccc(O)c(/C=N/Nc2ccc(Cl)nn2)c1	-3%
Cc1c2ccccc2c(C)c2c1ccc1ccccc12	-5%
O=C(COC(=O)/C=C/c1ccc(Cl)cc1)Nc1ccccc1	16%

Arranged by molecular weight (ascending): 3 of the compounds above.
SMILES	VDR inhibitor
O=C(COC(=O)/C=C/c1ccc(Cl)cc1)Nc1ccccc1	16%
COc1ccc(C(=O)C2CCCN(Cc3ccc(C#CCCO)cc3)C2)c(OC)c1 (stereo not drawn)	6%
O=[N+]([O-])c1cccc(S(=O)(=O)Nc2ccc(S(=O)(=O)Nc3nccs3)cc2)c1	-5%

(list continues)
SMILES	VDR inhibitor
CCc1ccccc1NC(=O)CC1S/C(=N\c2nccs2)N(CC)C1=O (stereo not drawn)	9%
Cc1ccc(/C=N/n2nnnc2N)cc1[N+](=O)[O-]	-11%
O=C(CN(Cc1ccc(F)cc1)C(=O)CCC(=O)Nc1ccccn1)NCc1ccco1	-16%
CC(=O)Nc1ccc(S(=O)(=O)NCC(=O)N2CCN(S(=O)(=O)c3cccs3)CC2)cc1	-8%
COc1c(C=O)c2c(c(OC)c1OC)-c1ccc(OC)c(=O)cc1C(NC(C)=O)CC2 (stereo not drawn)	9%
NC(=O)CC(NC(=O)c1ccccc1)c1ccc(NCC2CC2)c([N+](=O)[O-])c1 (stereo not drawn)	-4%
CCOC(=O)N1CCN(C(=O)Cn2ncc3c4ccccc4n(Cc4ccc(F)cc4)c3c2=O)CC1	5%
O=C(Oc1ccc(F)cc1)c1nc(SCc2ccc(F)cc2)ncc1Cl	5%
Cc1cc(C)c2c(NC(=S)Nc3ccccc3)n[nH]c2n1	?
CC(O)CNc1nc2ccccc2n1CC(=O)NCC(F)(F)F (stereo not drawn)	-14%
COc1ccc2[nH]cc(CCNc3nc(-c4cccc(C#N)c4)nc4ccccc34)c2c1	-24%
CC(NC(=O)c1noc2c1CCCC2)c1ccccc1 (stereo not drawn)	-10%
COc1ccc(NC(=O)CN(CC(=O)Nc2ccc(OC)cc2)C(C)(C)CO)cc1	-2%
CNC(=O)c1c(NC(=O)c2cc(-c3cc(C)c(C)cc3O)n[nH]2)sc2c1CCCC2	-1%
CC(C)C(=O)Nc1cccc(NC(=O)c2cc3ccccc3o2)c1	1%
COc1ccc(C2CC2C(C)=O)cc1 (stereo not drawn)	6%
CC(=O)Nc1ccccc1OCC(=O)c1ccc2c(c1)OCO2	-6%
O=S1(=O)CCOC[C@H](Cc2ccccc2)N1Cc1ccccc1F	-8%
CC(C)CC(=O)NC(c1ccccc1)c1c(O)ccc2ccccc12 (stereo not drawn)	-9%
Cc1cccc(C(=O)NN2C(=O)C3C(c4ccccc4)C=CC(c4ccccc4)C3C2=O)c1 (stereo not drawn)	1%
CC(OC(=O)c1ccccc1CCc1ccccc1)C(N)=O (stereo not drawn)	-19%
O=C1NC(=O)C2(CCCC2)N1	4%
CC1=CC(C2CC(=O)N(c3ccccc3C)C2=O)CC2C(=O)N(c3ccccc3C)C(=O)C12 (stereo not drawn)	-4%
COc1ccc(S(=O)(=O)N2CCC(C(=O)Nc3ccccc3N3CCCC3)CC2)cc1OC	4%
COc1ccc(CNC(=S)NCc2ccc(OC(C)C)cc2)cc1	-4%
COc1ccccc1OCCCn1c(C2CC(=O)N(c3ccccc3Cl)C2)nc2ccccc21 (stereo not drawn)	13%
O=C(COc1ccccc1C(=O)NCc1ccccn1)Nc1ccc(Br)cc1	-8%
CS(=O)(=O)c1ccccc1-c1nnc(NC(=O)C2=COCCO2)o1	-2%
COc1ccc(/C=C2\SC(=S)N(CCC(=O)Nc3ccc(C(=O)O)cc3)C2=O)cc1	-7%
COc1ccc(CC(=O)N2CC(C)CC(C)C2)cc1 (stereo not drawn)	-13%
CCC(=O)Nc1cccc(-n2nnnc2SCC(=O)c2ccc(C)c(C)c2)c1	3%
O=C(CSc1nc2nn(-c3ccccc3)c(=O)c-2c2n1CCCCC2)Nc1ccccc1[N+](=O)[O-]	12%
CCNC(=S)N(CCCN(C)C)Cc1cc2cc3c(cc2[nH]c1=O)OCCO3	0%
Cc1ccc(-c2cc(C(=O)NCc3ccccc3)c3c(-c4ccc(C)cc4)[nH]nc3n2)cc1	-2%
CCc1ccc(NC(=O)CSc2ccc(-c3cccs3)nn2)cc1	0%
O=C(O)c1cc(S(=O)(=O)N2CCOCC2)ccc1N1CCOCC1	-4%
